Screens from PubChem BioAssay.
CFTR F508del = total CFTR protein upregulators, primary screen, cell-based, HeLa F508del-CFTR, immunofluorescence, viability (AID 1224863) | Cystic fibrosis transmembrane conductance regulator (Homo sapiens) | HeLa F508del-CFTR, immunofluorescence total CFTR, 24 h; by the record results were divided by relative cell number; some inactives read as strong as hits | calls, or highest fold increase where a dose series was run | 0.1% of 10,000 active; in the data nearly all actives have a first-pass fold increase above 1.5; a few of its hits are not listed in these tables;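 also: total CFTR protein by anti-CFTR immunofluorescence in fixed cells; first pass at 25 µM or 10 µg/mL by library and series up to twice that; 1 = untreated cells; first-pass hits also needed half or more of the cells alive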
CFTR F508del fold 25 µM = second read-out of CFTR F508del, no call of its own (marks repeat the call); fold increase; measured here: primary screen single dose 25 uM; library dosed in µM
CFTR F508del fold 10 ug/mL = recorded beside CFTR F508del, whose call it bears; fold increase; measured here: primary screen 10 ug/mL
CFTR F508del viability 25 µM = second read-out of CFTR F508del, no call of its own (marks repeat the call); viability, %; measured here: primary viability 25 uM; library dosed in µM;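 0% = killed and 100% = untreated cells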
CFTR F508del viability 10 ug/mL = recorded beside CFTR F508del, whose call it bears; viability, %; measured here: primary viability 10 ug/mL;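 0% = killed and 100% = untreated cells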
* = called active by the depositor; i = inactive; . = no result given; & = joins results of further samples. An excerpt; rates above refer to the full screens.

SMILES	CFTR F508del	CFTR F508del fold 10 ug/mL	CFTR F508del viability 10 ug/mL	others
CC1(NC(=O)Cc2cc(Cl)cc3c2OCOC3)CCS(=O)(=O)C1 (centres undefined)	i	0.91	91
CCCn1nnnc1CN1CCN(c2ccccc2[N+](=O)[O-])CC1	i	0.83	94
COC(=O)C1=C(C)NC(=S)NC1c1ccc(C)cc1 (centres undefined)	i	1	95
Cn1c(SCC(=O)c2cc3ccccc3o2)nc2ccsc2c1=O	i	0.96	93
CN(Cc1ccccc1Br)C(=O)C12CC3CC(CC(C3)C1)C2	i	1.1	96
COC(=O)c1c(C)[nH]c(-c2nc(N3CCOCC3)sc2C)c1C	i	1	94
CC(C)N(C(=O)CSc1nc(C2CC2)nc2c1c(=O)[nH]c(=O)n2C1CC1)C(C)C	i	1.1	92
CC(=O)[C@H]1CC[C@H]2[C@@H]3CC=C4C[C@@H](O)CC[C@]4(C)[C@H]3CC[C@]12C	i	.	.	CFTR F508del fold 25 µM=1.1;CFTR F508del viability 25 µM=97
CC(C#N)Sc1nnc(-c2ccc[nH]2)o1 (centres undefined)	i	1	90
COCCn1cnn(CN(C)Cc2cnn(C)c2)c1=S	i	1.1	86
O=[N+]([O-])c1ccc(F)cc1OCc1cnn(-c2ccccc2)n1	i	1.1	96
O=c1cc(CSC2=NC3CCCCC3N2)nc2sccn12 (centres undefined)	i	1.2	103
CC(NC(=O)CC1CCS(=O)(=O)C1)c1ccc(Cl)s1 (centres undefined)	i	1.1	94
O=C(CSC(F)(F)F)Nc1cc2c(cc1Cl)OCO2	i	1.1	95
O=C(NC1CC1)c1cc(C2CC2)on1	i	1	78
CC(=O)c1c(SCC(=O)NCCC(C)C)nc(=O)[nH]c1C	i	0.94	102
Cc1nc(NC(=O)CCOCC(C)C)sc1C	i	0.96	92
Cc1cc(OCCSc2nnc(-c3ccc[nH]3)o2)ccc1C(C)C	i	0.85	88
CC(=O)NC(C(=O)Nc1ncn[nH]1)C(C)C (centres undefined)	i	1	97
Cc1ccc2c(c1)CCCN2C(=O)C1CCN(C(=O)OC(C)(C)C)CC1	i	0.94	96
CCOC(=O)c1sc(NC(=O)CSc2n[nH]c(N)n2)c(C(=O)OCC)c1C	i	0.94	94
O=C(Nc1nnc(C2CC2)s1)NC1CCCCCC1	i	0.9	79
C#C[C@]1(O)CC[C@H]2[C@@H]3CCc4cc(O)ccc4[C@H]3CC[C@@]21C	i	.	.	CFTR F508del fold 25 µM=0.65;CFTR F508del viability 25 µM=85
Cc1nc(Cc2nc(-c3ccc4c(c3)OCO4)cs2)cs1	i	0.96	77
CC(C)n1nnnc1SCC(=O)c1ccc(CNC(=O)C(C)(C)C)s1	i	0.98	89
CSc1ccc(NC(=O)N(C)C2CCCCC2)cc1	i	1.2	99
CCONC(=O)CCc1c(C)nc2c(cnn2C(C)C)c1C	i	1.1	104
Nc1[nH]c(=O)ncc1F	i	.	.	CFTR F508del fold 25 µM=1&1.1;CFTR F508del viability 25 µM=103&95
NC(=O)c1cnccn1	i	.	.	CFTR F508del fold 25 µM=0.94&1;CFTR F508del viability 25 µM=100&94
Cc1nnc(CN)o1	i	1	104
O=C1CCSc2ccc(C(=O)OCc3cc(=O)oc4cc5c(cc34)CCC5)cc2N1	i	0.98	83
Clc1cccc(-c2noc(CSc3nnnn3C3CC3)n2)c1	i	1	90
COc1cc(NC(C)C(=O)c2c(N)n(C)c(=O)n(C)c2=O)cc(OC)c1OC (centres undefined)	i	0.96	96
Cc1nn2c3ccccc3n(C)c2c1C(=O)/C=C/c1cnn(-c2ccccc2)c1	i	1.1	98
O=S(=O)(O)CCS	i	.	.	CFTR F508del fold 25 µM=0.96&1.1;CFTR F508del viability 25 µM=73&111
O=C(OCc1nc(-c2cccs2)no1)c1cc(Cl)c[nH]1	i	0.89	96
CCC(=O)O[C@]1(C(=O)CCl)[C@@H](C)CC2C3CCC4=CC(=O)C=C[C@]4(C)[C@@]3(F)[C@@H](O)C[C@@]21C (some centres undefined)	i	.	.	CFTR F508del fold 25 µM=1.2;CFTR F508del viability 25 µM=85
CCONC(=O)c1cc(-c2ccc3c(c2)OCCO3)nc2c1cnn2C(C)C	i	1	102
CC1CCN(Cc2nc(N(C)CCO)c3c4c(sc3n2)CCC4)CC1	i	1	86
CN1CCN(C(=O)C2CCN(C(=O)OCC(F)(F)F)CC2)c2nc3ccccc3nc21	i	0.99	85
CO/N=C(/C(=O)N[C@@H]1C(=O)N2C(C(=O)O)=C(CSc3nc(=O)c(O)nn3C)CS[C@H]12)c1csc(N)n1	i	.	.	CFTR F508del fold 25 µM=1;CFTR F508del viability 25 µM=100
CCOC(=O)C1=C(C)N(CCOC)C(=O)NC1c1ccc(F)c(F)c1 (centres undefined)	i	0.89	92
O=[N+]([O-])c1c(N2CCN(C/C=C/c3ccccc3)CC2)nc2sccn12	i	0.81	113
C[C@@H]1O[C@@H](OC[C@H]2OC(Oc3c(-c4ccc(O)c(O)c4)oc4cc(O)cc(O)c4c3=O)[C@H](O)[C@@H](O)[C@@H]2O)[C@H](O)[C@H](O)[C@H]1O (some centres undefined)	i	.	.	CFTR F508del fold 25 µM=1;CFTR F508del viability 25 µM=109
Cc1nn(CC(C)C)c(C)c1CC(=O)NC(C)C1CC2CCC1C2 (centres undefined)	i	0.91	82
COc1ccc(C(=O)C(C)OC(=O)c2ccc3c(c2)OCO3)cc1 (centres undefined)	i	1.1	93
CC1CCN(S(=O)(=O)NCc2ccc(CN3CCCC3)cc2)CC1	i	0.99	92
CC(C)(C)C1CCCCC1NC(=O)CCc1ccco1 (centres undefined)	i	0.95	76
Cc1ccc2c(CN3C(=O)NC(C)(c4ccco4)C3=O)cc(=O)oc2c1C (centres undefined)	i	1.1	89
COC(=O)c1oc(CN2CCN(c3nccs3)CC2)cc1C	i	1.1	88
COc1cc(F)c(S(=O)(=O)Nc2ccc3c(c2)OC2(CCCCC2)O3)cc1OC	i	0.93	85
O=C1CCc2cc(C(=O)COC(=O)c3cccs3)ccc2N1	i	0.87	100
Cc1ccc(O)c([C@H](CCN(C(C)C)C(C)C)c2ccccc2)c1	i	.	.	CFTR F508del fold 25 µM=1.2;CFTR F508del viability 25 µM=109
N#CC1(N)CCC1	i	1	96
CCN(Cc1ccc(Br)s1)Cn1nc(C2CC2)n(C2CC2)c1=S	i	1.2	96
Cc1cc(C(=O)COC(=O)C2(O)CCCCC2)c(C)n1-c1ccc2c(c1)OCCO2	i	0.67	64
C[C@@H](c1ncncc1F)[C@](O)(Cn1cncn1)c1ccc(F)cc1F	i	.	.	CFTR F508del fold 25 µM=0.97&1.1;CFTR F508del viability 25 µM=83&99
COc1cccc(Nc2nnc(SCc3cc(Cl)c4c(c3)OCO4)s2)c1	i	0.99	90
CCOC(=O)C12CCC(=O)N1c1ccccc1C(=O)N2C (centres undefined)	i	1	100
CNC1(C)C2CCC(C2)C1(C)C (centres undefined)	i	.	.	CFTR F508del fold 25 µM=0.98;CFTR F508del viability 25 µM=90

Fetched by compound from above:
SMILES	CFTR F508del	CFTR F508del fold 10 ug/mL	CFTR F508del viability 10 ug/mL	others
COc1cc(F)c(S(=O)(=O)Nc2ccc3c(c2)OC2(CCCCC2)O3)cc1OC	i	0.93	85
O=C1CCc2cc(C(=O)COC(=O)c3cccs3)ccc2N1	i	0.87	100
Cc1cc(C(=O)COC(=O)C2(O)CCCCC2)c(C)n1-c1ccc2c(c1)OCCO2	i	0.67	64
C[C@@H](c1ncncc1F)[C@](O)(Cn1cncn1)c1ccc(F)cc1F	i	.	.	CFTR F508del fold 25 µM=0.97&1.1;CFTR F508del viability 25 µM=83&99
COC(=O)c1oc(CN2CCN(c3nccs3)CC2)cc1C	i	1.1	88
Cc1ccc(O)c([C@H](CCN(C(C)C)C(C)C)c2ccccc2)c1	i	.	.	CFTR F508del fold 25 µM=1.2;CFTR F508del viability 25 µM=109

Additional entries:
SMILES	CFTR F508del	CFTR F508del fold 10 ug/mL	CFTR F508del viability 10 ug/mL	others
CC(C)[N+]1(C)C2CCC1CC(OC(=O)C(CO)c1ccccc1)C2 (centres undefined)	i	.	.	CFTR F508del fold 25 µM=1.1;CFTR F508del viability 25 µM=88
CC(C)(C)n1nnnc1SCc1nc(Cc2ccccc2)no1	i	1	105
Cn1c(=O)c2ccccc2n2c(COc3cc(C(F)(F)F)cc(C(F)(F)F)c3)nnc12	i	1	101
Cc1cc(NC(=O)CN2CCN(C(=O)C3CC(=O)N(C4CC4)C3)CC2)no1 (centres undefined)	i	1.1	97
COCCOCCCNc1c(C#N)c(=O)n(C)c(=O)n1C	i	0.96	95
CC(C)(CO)C(O)C(=O)NCCC(=O)NCCSSCCNC(=O)CCNC(=O)C(O)C(C)(C)CO (centres undefined)	i	.	.	CFTR F508del fold 25 µM=1;CFTR F508del viability 25 µM=84
O=C(O)Cn1ncc2ccc([N+](=O)[O-])cc21	i	0.82	92
O=C1C(CCS(=O)c2ccccc2)C(=O)N(c2ccccc2)N1c1ccccc1 (centres undefined)	i	.	.	CFTR F508del fold 25 µM=0.91;CFTR F508del viability 25 µM=74
CCOC(=O)C1=C(CSc2nc(C)nc3sc(C(=O)OCC)c(C)c23)NC(=O)NC1C (centres undefined)	i	1.1	103
FC(F)(F)c1cc(NCc2nc(-c3ccsc3)no2)ccc1Br	i	0.88	84
CC(C)CN1C(=O)C(=O)N(Cc2cc(-c3cccs3)on2)C1=O	i	0.88	99
C[C@]12C=CC(=O)C=C1CC[C@@H]1[C@@H]2[C@@H](O)C[C@@]2(C)[C@H]1CC[C@]2(O)C(=O)CO	i	.	.	CFTR F508del fold 25 µM=1&1.1;CFTR F508del viability 25 µM=98&88
CO/N=C(\C(=O)NC1C(=O)N2C(C(=O)OCOC(=O)C(C)(C)C)=C(/C=C\c3scnc3C)CSC12)c1csc(N)n1 (centres undefined)	i	.	.	CFTR F508del fold 25 µM=1.1;CFTR F508del viability 25 µM=99
Nc1ccc(S(=O)(=O)NC(=O)c2ccccc2)cc1	i	.	.	CFTR F508del fold 25 µM=1.1;CFTR F508del viability 25 µM=78
CC(C)Sc1nnc2n(-c3ccccc3)c(=O)c3ccccc3n12	i	1	101

Structures above that contain bromine (three):
SMILES	CFTR F508del	CFTR F508del fold 10 ug/mL	CFTR F508del viability 10 ug/mL	others
CN(Cc1ccccc1Br)C(=O)C12CC3CC(CC(C3)C1)C2	i	1.1	96
CCN(Cc1ccc(Br)s1)Cn1nc(C2CC2)n(C2CC2)c1=S	i	1.2	96
FC(F)(F)c1cc(NCc2nc(-c3ccsc3)no2)ccc1Br	i	0.88	84

The results go on:
SMILES	CFTR F508del	CFTR F508del fold 10 ug/mL	CFTR F508del viability 10 ug/mL	others
Nc1ncc(Cc2ccc(F)c(F)c2F)s1	i	0.99	100
CC1CCN(S(=O)(=O)N2CCCC2c2nnc3n2CCCCC3)CC1 (centres undefined)	i	1.1	100
Cc1occc1-c1nnc(SCc2cc(=O)n3c(C)cccc3n2)o1	i	1.1	106
CC(Sc1nc(N)cc(N)n1)C(=O)c1c[nH]c2ccccc12 (centres undefined)	i	1	95
CN(Cc1ccc2c(c1)OCO2)S(=O)(=O)c1ccc2c(c1)NC(=O)CO2	i	1	76
OCc1ccccc1O	i	.	.	CFTR F508del fold 25 µM=1;CFTR F508del viability 25 µM=99
O=C1C(=O)N(C2CCCC2)C(=O)N1CN1CCN(C/C=C/c2ccccc2)CC1	i	1.2	106
COCCN(Cc1cccs1)S(=O)(=O)C1=Cc2ccccc2CC1	i	0.86	86
CS(=O)(=O)c1ccc(NS(=O)(=O)c2ccc(Br)s2)cc1	i	0.92	94
O=C(O)c1cc(/C=C/c2ccc(OC(F)(F)F)cc2)nc2ccc(Br)cc12	i	0.79	70
O=S(=O)(NCc1cc2cc(F)ccc2s1)c1ccc(F)c2ncccc12	i	0.99	96
O=C(CC1C=CCC1)NCCNc1ncccn1 (centres undefined)	i	1.2	94
NCc1ccc(N2CCC(O)CC2)c(F)c1	i	0.86	88
COc1ccc2[nH]c(S(=O)Cc3ncc(C)c(OC)c3C)nc2n1 (centres undefined)	i	.	.	CFTR F508del fold 25 µM=0.96&1.1;CFTR F508del viability 25 µM=81&84
O=c1ccc2ccccc2o1	i	.	.	CFTR F508del fold 25 µM=0.98;CFTR F508del viability 25 µM=102
Clc1ccc(COC(Cn2ccnc2)c2ccc(Cl)cc2Cl)c(Cl)c1 (centres undefined)	i	.	.	CFTR F508del fold 25 µM=0.61&0.93&0.77&0.76;CFTR F508del viability 25 µM=20&101&92&86
O=c1cc(COc2ccccc2[N+](=O)[O-])c2cc3c(cc2o1)CCC3	i	1.1	101
O=C(NCCS(=O)(=O)NC1CC1)C12CC3CC(CC(C3)C1)C2	i	1.1	96
NC(=O)CCc1nn(CN2CCOCC2)c(=S)n1CC1CCCO1 (centres undefined)	i	1.1	83
COc1ccc2c(c1OC)C(=O)OC2[C@H]1c2c(cc3c(c2OC)OCO3)CCN1C (some centres undefined)	i	.	.	CFTR F508del fold 25 µM=1;CFTR F508del viability 25 µM=79
CCN(CC)S(=O)(=O)NCc1ccc(F)c(C)c1	i	0.95	93
CNC(=O)CNc1ncnc2sc3c(c12)CCC3	i	1.1	99
O=S(=O)(c1ccc(F)c(F)c1)N1CCN(Cc2ccc3c(c2)CCO3)CC1	i	0.99	82
CC(OC(=O)C12CC3CC(CC(O)(C3)C1)C2)C(=O)Nc1ccc2[nH]c(=O)[nH]c2c1 (centres undefined)	i	0.97	94
Cc1cc(CC(=O)O)n(C)c1C(=O)c1ccc(Cl)cc1	i	.	.	CFTR F508del fold 25 µM=0.86;CFTR F508del viability 25 µM=101
